Screening results from PubChem BioAssay.
Arbovirus anti – antivirals against arbovirus infection. inhibition, % at 10 µM. 200,000 compounds, 0.37% hits. arbovirus infection cell-based antiviral screen;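 active = inhibition from about 30%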;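 also: bluetongue infection of BSR cells; cell survival read as ATP light after 72 h; 0% = infected wells without compound and 100% = uninfected wells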
Mtb bLac sens – beta-lactam sensitization of Mtb H37Rv. M. tuberculosis H37Rv growth with meropenem, percent inhibition; hits of this screen are not shown here. inhibition, % at 25 µM. 330,000 compounds, 0.27% hits. AID 434955;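 active = about 74% or more and at least 40 points above the plate without the antibiotic, then above 30% in a dose series; inconclusive = first-round hits that could not be retested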;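 also: growth measured after seven days incubation then overnight dye step; 0% = bacteria only wells and 100% = bacteria with antibiotic; twin plates without the antibiotic show which effects depend on it; some results filed as inactive read as strong as hits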
YopH inh – inhibitors of Yersinia enterocolitica YopH tyrosine phosphatase | fluorescence Ex485/Em525 | inhibition, %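 (about 10 µM by stock and volumes)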 | 140,000 compounds, 0.16% hits;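 active = inhibition of 50% or more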;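 also: controls were vehicle for no effect and minimum signal wells for full effect; inactives centre near -20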
Mtb H37Rv – M. tuberculosis H37Rv growth inhibitors, H37Rv strain (AID 1626); 220,000 compounds, 0.95% hits; M. tuberculosis H37Rv growth inhibition; higher % means a stronger effect; one-dose inhibition, % at 10 µM; IC50 in µM for titrated hits;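 active = confirmed in a dose series; inconclusive = inhibition above 80% but not taken into the dose series; inactive = below 80% or under 30% at every dose of the series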;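 also: bacteria incubated seven days before Alamar blue readout; 0% = bacteria only wells and 100% = bacteria with antibiotic wells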
RecA intein inh – blocks M. tuberculosis RecA intein splicing; P9WHJ3; cell-free RecA intein splicing, fluorescence; inhibition, %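 (about 9 µM by stock and volumes)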; 290,000 compounds, 0.75% hits; AID 2221; in the data active = inhibition above about 30%; inconclusive = no clear call, values can overlap the other calls;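 also: 0% = vehicle wells and 100% = reference inhibitor control wells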
Target sequence (P9WHJ3 whole entry, looked up): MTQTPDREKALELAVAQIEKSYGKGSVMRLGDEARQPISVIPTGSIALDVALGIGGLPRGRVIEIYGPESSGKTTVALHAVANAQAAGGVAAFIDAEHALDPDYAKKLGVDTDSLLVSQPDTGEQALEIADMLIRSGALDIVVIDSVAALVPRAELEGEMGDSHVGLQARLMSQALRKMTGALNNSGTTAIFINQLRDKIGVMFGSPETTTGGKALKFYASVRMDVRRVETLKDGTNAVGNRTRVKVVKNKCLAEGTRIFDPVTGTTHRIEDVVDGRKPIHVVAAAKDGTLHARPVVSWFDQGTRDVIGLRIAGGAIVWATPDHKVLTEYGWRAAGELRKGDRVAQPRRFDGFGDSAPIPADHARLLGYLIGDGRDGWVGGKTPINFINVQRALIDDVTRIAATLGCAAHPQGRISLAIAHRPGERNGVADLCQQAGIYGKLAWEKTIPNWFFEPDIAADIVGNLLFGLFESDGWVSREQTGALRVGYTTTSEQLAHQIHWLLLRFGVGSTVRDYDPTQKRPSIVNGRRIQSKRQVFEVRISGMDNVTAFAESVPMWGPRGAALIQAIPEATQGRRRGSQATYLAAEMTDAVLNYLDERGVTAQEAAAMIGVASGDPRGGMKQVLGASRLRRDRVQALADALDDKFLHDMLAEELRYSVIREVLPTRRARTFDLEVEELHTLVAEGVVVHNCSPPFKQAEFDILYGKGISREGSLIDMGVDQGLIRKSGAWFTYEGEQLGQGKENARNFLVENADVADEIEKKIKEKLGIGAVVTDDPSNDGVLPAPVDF
An asterisk follows results filed as active; i = inactive; ? = inconclusive; · = not tested or not shown. The list is partial, so the mix of outcomes need not match the whole.

canonical_smiles	YopH inh	Mtb bLac sens	Arbovirus anti	RecA intein inh	Mtb H37Rv
COc1cccc(OC)c1OCCCN1CCOCC1	-31.4	-6.0	15.0	-2.0	-1.6%
COc1ccccc1NC(=O)c1cc(=O)[nH]c2ccccc12	·	-5.7	·	14.5	·
CCN(CC)c1nc(N)c(C#N)c(CC#N)c1C#N	·	-5.6	·	2.2	-10.2%
CCN(Cc1cnn(C)c1)Cc1nc(Cc2ccccc2Cl)no1	·	9.4	1.9	0.7	3.2%
COc1ccccc1N1C(=O)CC(N(O)c2ccccc2)C1=O (stereo not drawn)	·	8.7	·	-4.1	-17.0%
O=C(CSc1nc2ccccc2o1)N/N=C/c1ccc(C(=O)O)cc1	·	-10.3	·	0.3	-5.5%
COc1ccc(-c2nc3ccccc3c(=O)n2N)cc1	-33.0	-17.2	11.0	-5.3	7.2%
C/C(=N\NC(=O)c1ccc(NS(=O)(=O)c2cccs2)cc1)c1cccs1	·	13.9	15.6	1.3	0.4%
CC12CS(=O)(=O)CC1SC(=S)N2Cc1ccccc1 (stereo not drawn)	·	0.1	3.9	-2.2	0.6%
Cc1cc(Nc2ccccc2Cl)n2nnnc2n1	-5.3	-8.3	3.2	1.3	-17.8%
O=C1CC(N2CCSCC2)C(=O)N1c1cccc(Cl)c1 (stereo not drawn)	·	75.4	-2.2	-3.0	-2.3%
O=C(/C=C/c1ccccc1)NC(N1CCOCC1)C(Cl)(Cl)Cl (stereo not drawn)	·	13.6	-0.9	3.0	7.1%
C(=N\Nc1nn2cnnc2c2ccccc12)/c1ccco1	·	0.2	-7.3	-5.6	-9.3%
Cc1oc(C(C)(C)C)cc1C(=O)Nc1ccc2c(c1)OCO2	·	-3.1	·	2.5	-5.5%
O=C1OC(c2ccc(Cl)cc2)/C(=C(/O)c2ccccc2)C1=O (stereo not drawn)	-0.1	-5.0	10.9	4.3	0.8%
CCN(CC)S(=O)(=O)c1ccc(N2CCOCC2)c(NC(=O)c2cc(=O)[nH]c3ccccc23)c1	·	6.5	1.3	2.9	3.5%
Cc1nc(C/C(=N\Nc2ccccc2)c2ccc(O)cc2O)cs1	·	22.5	-26.1	16.1	-0.5%
COc1ccc(/C(O)=C2/C(=O)C(=O)N(c3ncccn3)C2c2ccc(OC)c(OC)c2)cc1 (stereo not drawn)	-25.1	2.8	0.0	-1.5	-16.0%
Cc1ccc(CS(=O)(=O)c2cn(CC(=O)N3CCOCC3)c3ccccc23)cc1	·	-9.4	·	0.3	·
Nc1nc(NCCOCCO)nc(NC2CCCCC2)c1[N+](=O)[O-]	·	-4.5	·	0.4	·

Only Mtb bLac sens, RecA intein inh and Arbovirus anti, for some of the entries so far:
mol,Mtb bLac sens,RecA intein inh,Arbovirus anti
Cc1cc(Nc2ccccc2Cl)n2nnnc2n1,-8.3,1.3,3.2
CCN(CC)c1nc(N)c(C#N)c(CC#N)c1C#N,-5.6,2.2,·
CCN(CC)S(=O)(=O)c1ccc(N2CCOCC2)c(NC(=O)c2cc(=O)[nH]c3ccccc23)c1,6.5,2.9,1.3
Cc1ccc(CS(=O)(=O)c2cn(CC(=O)N3CCOCC3)c3ccccc23)cc1,-9.4,0.3,·

The main list resumes with the 2 entries that preceded the break.
canonical_smiles	YopH inh	Mtb bLac sens	Arbovirus anti	RecA intein inh	Mtb H37Rv
Cc1ccc(CS(=O)(=O)c2cn(CC(=O)N3CCOCC3)c3ccccc23)cc1	·	-9.4	·	0.3	·
Nc1nc(NCCOCCO)nc(NC2CCCCC2)c1[N+](=O)[O-]	·	-4.5	·	0.4	·
COc1ccc(S(=O)(=O)NC2CC(=O)N(c3ccccc3)C2)cc1C (stereo not drawn)	·	-10.2	·	4.1	·
O=C(CSc1nnc2n(C3CCCC3)c(=O)c3ccccc3n12)N1CCCCCC1	-49.6	?	3.3	1.7	-0.6%
CCN(CC(=O)Nc1sc2c(c1C#N)CCC(C)C2)CC(=O)NC1CCS(=O)(=O)C1 (stereo not drawn)	·	53.3	4.2	-1.8	23.6%
COC(=O)c1n[nH]c2ccccc12	-33.5	0.2	2.0	-4.1	-0.4%
Cc1[nH]c2ccccc2c1C(=O)C(=O)N1CCN(c2ccccc2Cl)CC1	·	12.4	·	2.3	·
Nc1nc(N)nc(COc2ccccc2)n1	·	-0.5	-2.4	-3.6	-0.9%
CCCNC(=S)N1CCC(C(=O)c2ccc3c(c2)OCCO3)CC1	·	-3.0	0.1	-1.0	2.8%
CCN(CC)c1ccc(S(=O)(=O)N2CCOCC2)cc1NC(=O)c1cc(=O)c2ccccc2o1	·	1.7	-7.3	-1.9	1.5%
COc1cc(/C=C2\SC(=Nc3ccccc3)N(Cc3ccco3)C2=O)ccc1OC(C)C(=O)O (stereo not drawn)	-8.7	3.0	1.5	12.9	10.9%
COc1cc(OC)nc(NC(=O)CSc2nc3ccccc3o2)n1	-4.6	9.1	-10.0	·	-5.3%
O=C(CCn1nnc2ccccc2c1=O)NCC1CCC(C(=O)O)CC1 (stereo not drawn)	-51.8	-1.7	0.4	5.2	-4.8%
CC(=O)N1c2c(cc(Br)cc2S(=O)(=O)Nc2c(C)n(C)n(-c3ccccc3)c2=O)CC1C (stereo not drawn)	·	2.6	0.9	-2.7	-1.5%
CSc1nc(NCc2ccco2)c2c3c(sc2n1)CN(C)CC3	-31.7	·	5.0	-2.1	1.4%
CCOc1ccc(S(=O)(=O)Nc2nc3ccc(OC)cc3s2)cc1	-0.7	-6.8	1.1	-0.8	0.4%
Cc1cc(OCC(=O)N(C)C2CCCCC2)ccc1Cl	·	0.6	1.6	0.8	10.2%
COc1cc(OC)cc(C(=O)N[C@H](C(=O)OCn2nnc3ccccc3c2=O)C(C)C)c1	·	-3.3	2.3	0.4	2.9%
O=C(NCc1ccccc1)c1cc2ccc(O)cc2oc1=O	·	-6.0	·	i	·
CCOc1ccc(NC(=O)C2=C(C)NC(=S)NC2c2ccc(O)c(OC)c2)cc1 (stereo not drawn)	-44.8	-3.0	1.5	2.9	-1.5%
O=c1[nH]c(-c2ccccn2)cc2ccccc12	-32.0	41.5	-9.8	5.0	-4.5%
CCC(=O)N(C)CCc1cc2c(c(OC)c1/C=N/Nc1ccc(C(=O)O)cc1)OCO2	·	-0.8	·	-1.8	0.6%
CCC(C)NC(=O)Cn1cnc([N+](=O)[O-])c1 (stereo not drawn)	·	-3.8	-0.9	-1.9	8.0%
O=C(/C=C/c1ccc(Cl)cc1)Nn1c(-c2cccs2)nc2ccccc2c1=O	-8.3	-1.8	0.3	-1.5	43.1%
Cc1ccccc1C(=O)N1CCC(C(N)=O)CC1	-10.1	-1.3	-1.1	0.2	12.2%
CC(=O)/C(C#N)=C1\NC(=O)C(Cc2ccccc2)S1 (stereo not drawn)	-55.3	-4.0	15.6	0.2	-0.6%
Cc1ccccc1CN1CCc2cc([N+](=O)[O-])ccc21	·	1.0	·	4.0	·
CC(=O)Nc1ccc(S(=O)(=O)N[C@@H](C)C(=O)OCc2cc([N+](=O)[O-])cc3c2OCOC3)cc1	·	-3.9	·	-3.5	-3.4%
COC(=O)COc1ccc(C(=O)Cn2c(NCCCO)nc3ccccc32)cc1	·	-2.8	·	-2.2	·
CS(=O)(=O)c1ccc(-c2nnn(CC(=O)N3CCCCC3)n2)cc1	·	1.3	·	-1.4	·
CN1CCN(c2ncnc3c2cnn3C)CC1	·	-2.5	·	-1.7	8.4%
COc1ccc(CCNC(=O)CS(=O)Cc2nc(-c3ccccc3F)oc2C)cc1OC (stereo not drawn)	·	-3.5	·	1.0	·
CCN1CCN(c2nn3c(=O)c4ccccc4nc3c3ccccc23)CC1	-24.4	-4.3	-35.0	-1.0	4.6%
Cc1nc2c(C)cccn2c1C(=O)N/N=C/c1ccccc1[N+](=O)[O-]	·	-10.7	·	-2.5	-10.1%
Cc1ccccc1CS(=O)(=O)Cc1ccc(C(=O)NCCCN2CCOCC2)o1	-4.3	5.2	0.9	-5.7	·
O=C(CNc1ccccc1)N/N=C/c1ccc([N+](=O)[O-])o1	-15.8	99.8	-12.2	-5.5	·
C=CCn1c(=O)c2c(nc3n2CCN3c2cccc(Cl)c2C)n(C)c1=O	-36.1	-8.8	8.3	1.0	-1.8%
CC(C)Oc1ccccc1/C=N/NC(=O)C1CC1	·	-5.2	·	0.9	·
COc1cc(C)c(CN2CCC(n3nccc3NC(=O)C3CC3)CC2)cc1C	·	1.4	·	-0.4	·
CCN(CC)CCNC(=O)c1ccc(NC(=O)c2ccc(C(=O)c3ccccc3)cc2)cc1	·	-9.3	·	1.1	·
CC(C)CCNc1nc(N)c([N+](=O)[O-])c(NC2CCCCC2)n1	·	3.3	·	1.5	·
Cc1cc(C)c(S(=O)(=O)NCc2csc(C)n2)c(C)c1	·	1.3	·	0.5	·
Cc1nnc(SC(C)C(=O)Nc2ncc(Cl)cc2Cl)n1Cc1ccccc1 (stereo not drawn)	17.5	-12.5	-8.9	1.3	2.4%
O=C(NCc1ccccc1F)C(=O)NCC1CCCN1S(=O)(=O)c1cccs1 (stereo not drawn)	·	2.7	·	-1.4	·
Cc1ccc(C(C)C)c(OCCNC(=O)c2cncc(Br)c2)c1	1.9	8.0	8.0	2.0	10.3%
C=CCOC(=O)C(C#N)c1nc2ccccc2nc1N1CCN(Cc2ccccc2)CC1 (stereo not drawn)	-17.9	-1.8	8.0	-6.4	47.0%
Cc1ccc2c(c1)nnn2C1CCN(CC(=O)NNC(=O)c2ccco2)CC1	·	-5.4	1.1	-1.4	-1.1%
Cc1ccc2ncnc(Nc3ccc(C)c(C)c3)c2c1	-17.5	1.2	0.3	1.4	4.0%
COC(=O)C1=C(C(=O)OC)[C@@H]2Nc3ccccc3[C@@]23C[C@@H](C(=O)OC)N(C(=O)c2cccs2)C3=N1	·	-12.9	·	3.4	-12.3%
O=C(NCc1ccccn1)C(=O)NCC(c1ccco1)N1CCOCC1 (stereo not drawn)	·	-3.5	-2.4	0.9	4.9%
COC(C(=O)Nc1ccnn1C1CCN(C(=O)c2cccc(F)c2)CC1)c1ccccc1 (stereo not drawn)	·	3.5	·	0.4	·
CC(=O)/C(=N/Nc1ccccc1)Sc1nnc(CCc2ccccc2)n1-c1ccccc1	-16.9	4.7	-5.5	2.7	7.6%
CN(C)S(=O)(=O)c1cc(NC(=O)COC(=O)c2ccc3c(c2)OCO3)ccc1Cl	-50.1	2.6	4.4	·	3.1%
Cc1nc2cc(-c3ccccc3)nn2c(C)c1CCC(=O)NC(C)c1ccc2c(c1)OCCO2 (stereo not drawn)	-20.3	-4.0	-0.9	1.6	·
O=C(NCc1ccco1)c1cccc(S(=O)(=O)N2CCc3ccccc32)c1	-27.1	-0.8	0.7	1.9	-1.0%
COc1ccc(Br)cc1/C=N/NC(=O)c1cc(OC)c(OC)c(OC)c1	-37.4	-2.1	-8.3	-1.5	0.8%
N#C/C(=N\Nc1ccc(Cl)cc1)C(=N)N1CCCCCC1	·	0.1	-0.9	0.1	0.3%
Cc1ccccc1NC(=O)C1CCN(c2cc(-c3ccccc3)nc3ncnn23)CC1	-9.1	66.6	4.7	0.3	68.5%
CCOC(=O)c1sc2c(c1C)c(=O)c(C(=O)OCC)cn2CC	-9.5	2.1	-2.9	-1.4	-3.3%
O=C(Nc1ccccc1F)c1cc(C(=O)Nc2ccccc2F)cc([N+](=O)[O-])c1	·	0.3	·	1.7	·
COc1ccc(N2CCN(C(=S)Nc3ccc(OC)cc3OC)CC2)cc1	·	2.6	·	-4.0	·
COc1cc2c(cc1OC)C(C)N(C(=O)c1cc3n(n1)C(C(F)(F)F)CC(c1ccco1)N3)CC2 (stereo not drawn)	7.3	16.1	-19.4	-0.4	0.9%
COc1ccccc1N(CC(=O)NCc1ccco1)S(C)(=O)=O	·	-0.1	-1.5	-5.2	-12.7%
